Bioassay records: PubChem, several laboratories
Insulin prom inh: TRM-6 insulin promoter activity inhibition | inhibition, % at 2 µM | 0.9% of 130,000 active | TRM-6 cells (human fetal islet line), insulin promoter-eGFP reporter, imaging; reporter expression induced with tamoxifen;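 active = inhibition above the mean plus 3 SD, with well images judged a real hit on visual review, cut at about 60% in these data, passing the limit was not always enough; inconclusive = inhibition over the cutoff but images rejected on review; inactive = inhibition not above the cutoff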
RGS16-Gao HTS: regulators of human RGS16-Galphao interaction. O15492+P09471. bead-based flow cytometry RGS16-Galphao binding, fluorescence; actives lie on both sides. binding response (% of control), % at 10 µM. 0.38% of 220,000 active;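 active = below 25% or above 175%, edge rows of some plates excepted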;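 also: Galphao activated by GDP with aluminum fluoride before binding; 100% = wells without compound and 0% = beads without RGS; some results beyond the cut were filed as inactive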
Target sequence (O15492 whole entry, looked up): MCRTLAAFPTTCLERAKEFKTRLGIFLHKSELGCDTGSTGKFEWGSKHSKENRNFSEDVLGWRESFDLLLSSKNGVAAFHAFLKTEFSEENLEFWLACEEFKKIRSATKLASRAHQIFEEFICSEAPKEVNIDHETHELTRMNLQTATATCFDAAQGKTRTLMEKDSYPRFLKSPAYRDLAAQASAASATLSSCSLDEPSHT
Target sequence (P09471 whole entry, looked up): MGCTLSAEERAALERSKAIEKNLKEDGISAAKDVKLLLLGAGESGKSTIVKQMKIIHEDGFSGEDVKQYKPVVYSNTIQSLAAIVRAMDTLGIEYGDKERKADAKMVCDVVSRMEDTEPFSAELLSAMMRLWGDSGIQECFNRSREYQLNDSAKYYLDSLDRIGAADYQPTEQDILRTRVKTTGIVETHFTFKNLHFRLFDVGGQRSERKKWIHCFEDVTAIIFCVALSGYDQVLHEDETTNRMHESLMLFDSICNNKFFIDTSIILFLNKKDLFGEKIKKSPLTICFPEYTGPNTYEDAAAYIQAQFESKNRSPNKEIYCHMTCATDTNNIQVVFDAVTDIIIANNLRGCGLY
GALR2 agonist: GALR2 (human) receptor agonism | activation, %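 (tested at 5 µM)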 | 0.48% of 140,000 active | AID 803 | GALR2-expressing cells, agonist activation read-out | O43603;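 active = above mean plus 3 SD of all compounds, about 5% in these data, not always enough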;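 also: 0% = vehicle buffer wells and 100% = reference agonist at full effect; tested in CHO reporter cells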
Target sequence (O43603 whole entry, looked up): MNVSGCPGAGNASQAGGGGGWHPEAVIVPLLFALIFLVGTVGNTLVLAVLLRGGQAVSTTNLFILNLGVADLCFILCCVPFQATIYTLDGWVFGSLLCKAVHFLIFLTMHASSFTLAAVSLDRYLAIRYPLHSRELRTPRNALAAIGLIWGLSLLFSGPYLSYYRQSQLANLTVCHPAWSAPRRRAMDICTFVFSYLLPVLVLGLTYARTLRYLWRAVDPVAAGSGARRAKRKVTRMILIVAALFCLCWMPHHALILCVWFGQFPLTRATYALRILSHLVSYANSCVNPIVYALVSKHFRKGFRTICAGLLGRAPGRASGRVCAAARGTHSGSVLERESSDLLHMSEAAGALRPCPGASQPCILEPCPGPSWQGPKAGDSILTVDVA
PKD1 kinase inh: blocks activity of human protein kinase D1; Q15139; PKD1 kinase fluorescence polarization assay; inhibition, %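 (about 10 µM by stock and volumes)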; 0.056% of 200,000 active; AID 797;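 active = inhibition of 50% or more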;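 also: controls were vehicle for no effect and a reference inhibitor for full effect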
HSV augment: increases HSV replication in cells | 0.005% of 220,000 active | HSV replication augmentation in cells, fold increase | maximum fold increase | AID 1956;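 active = peak rise of 1.5-fold or more in the series; inconclusive = self-fluorescent or not available for retest; tested in PC3 cells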;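 also: first round at 10 µM; read as green reporter fluorescence; hits show the peak of a series up to 25 µM; 1 = signal of infected wells without compound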
Insulin prom inh cell count: second read-out of Insulin prom inh, no call of its own (marks repeat the call); normalized cell count, %; measured here: cell count, toxicity; reference of the scale not given here;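 cells exposed to compound for 48 h; stained nuclei by imaging scaled within each plate; lower means fewer cells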
HSV augment primary fold: further read-out of HSV augment, marked with its call; fold increase; compound at 10 µM; measured here: primary screen fold increase 10 uM; tested in PC3 cells;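 GFP signal in the first replicate; 1 = infected wells without compound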
Numbers without * were called inactive; i = inactive; ? = inconclusive; . = no result given; & = joins results of further samples.

SMILES	Insulin prom inh	Insulin prom inh cell count	RGS16-Gao HTS	GALR2 agonist	PKD1 kinase inh	HSV augment	HSV augment primary fold
O=C(NCC1CCCCC1)C12CN(Cc3ccccc3)CC1C(c1cccc([N+](=O)[O-])c1)=NO2 (stereo not drawn)	-57	74	108	-0.9	-5	i	1
CCn1c(=O)c(=O)[nH]c2cc(C(=O)N3CCN(Cc4ccc5c(c4)OCO5)CC3)ccc21	.	.	100	.	0	i	0.95
C/C(N)=C(/C#N)C(=O)CSc1nnc(Nc2cccc(C)c2)s1	-31	130	101	-0.8	0	i	0.86
CC(=O)Nc1cc2cc(NS(=O)(=O)c3ccc(C)cc3)ccc2oc1=O	.	.	100	.	.	i	1.1
CC1(C)CC(=O)c2cc(OCC(=O)N3CCCCCC3)ccc2O1	37	53	98	-1.6	3	i	0.77
CC(=N\Nc1ccccc1)/C(=N/O)C(=O)Nc1ccccc1	34	116	102	-2.3	-9	i	0.98
COc1cccc(NC(=S)N(Cc2ccc(C)cc2)Cc2ccccn2)c1	.	.	100	.	0	i	0.9
Cc1cc(C)n2nc(C(=O)N3CCN(Cc4ccc5c(c4)OCO5)CC3)nc2n1	27	84	99	.	-12	i	1
Oc1cccc(C(O)CNCc2ccc(-c3ccccc3)cc2)c1 (stereo not drawn)	.	.	97	.	-4	i	0.67
O=C(Nc1cccnc1)C1(c2ccc(Cl)cc2)CCCC1	11	63	110	-0.7	-2	i	0.88
CCCOc1ccc2c(=O)c(-c3cc(C(=O)OC)oc3C)c(C)oc2c1	8	121	101	-3.4	-21	i	0.94
COc1ccc(C(=O)/C(C#N)=N/Nc2ccccc2[N+](=O)[O-])cc1	-3	47	113	-3.1	-2	i	0.75
O=C(c1n[nH]c(=O)c2ccccc12)N1CCOCC1	.	.	103	-1.5	-6	i	1
N#Cc1cc2c(nc1SCC(N)=O)CCCCC2	-54	75	104	-2.4	3	i	0.88
COc1ccc(NC(=O)Cc2c(O)c3ccccc3[nH]c2=O)cc1	0	120	130	0.0	-4	i	0.98
COc1ccc(NS(=O)(=O)c2cccc(-c3n[nH]c(=S)n3Cc3ccccc3)c2)cc1	-117	134	107	.	4	i	0.93
Cc1ccc(CNC(=O)CCS(=O)(=O)c2ccc(Br)s2)cc1	4	115	99	-1.6	-5	i	1
CC(=O)N1c2ccccc2C(C)=CC1(C)C	.	.	97	.	.	i	1.2
COc1ccc(CCNC(=O)CC2C(=O)NCCN2CC(C)(C)C)cc1 (stereo not drawn)	.	.	101	.	-4	i	1
O=C(Cc1ccc(Cl)cc1)N/N=C/c1cccs1	.	.	95	.	-4	i	1.3
COc1ccc(NC(=O)COC(=O)c2ccc(S(=O)(=O)N(C)c3ccccc3OC)cc2)cc1OC	17	202	105	.	-3	i	0.91
CC(C)(C)CC(C)(C)NC(=S)N1CCN(Cc2ccc3c(c2)OCO3)CC1	-45	90	93	.	-4	i	1
COc1cc2c(cc1NC(=O)C(C)Sc1nc3ccccc3n1C)oc1ccccc12 (stereo not drawn)	10	97	101	-0.9	-3	i	1
COc1cc(/C=C2/CCc3ccccc3C2=O)cc(OC)c1OC	.	.	99	-0.6	1	i	0.83
Cc1ccc(N(CC(=O)NCc2ccc(F)cc2)C(=O)c2csnn2)cc1C	-42	127	106	.	-1	i	0.99
Cc1ccccc1-n1nnc2c(=O)oc3ccccc3c21	-34	110	102	-0.3	-1	i	0.6
CNC(=O)c1ccc(Oc2ccc(C(=O)NC)cc2)cc1	.	.	95	-0.4	-6	i	0.75
CCCCCNCc1ccc(Cl)cc1	-42	130	101	.	-1	i	1.1
O=C(O)CSc1cc(C(F)(F)F)nc(-c2ccccn2)n1	-20	89	200	0.2	-5	i	0.86
O=C(c1cc(-c2ccco2)nn1-c1cccc(Cl)c1)N1CCCCC1	24	100	91	-1.8	-8	i	1.1

15 consecutive entries out of the list so far, quoted:
SMILES	Insulin prom inh	Insulin prom inh cell count	RGS16-Gao HTS	GALR2 agonist	PKD1 kinase inh	HSV augment	HSV augment primary fold
COc1ccc(NS(=O)(=O)c2cccc(-c3n[nH]c(=S)n3Cc3ccccc3)c2)cc1	-117	134	107	.	4	i	0.93
Cc1ccc(CNC(=O)CCS(=O)(=O)c2ccc(Br)s2)cc1	4	115	99	-1.6	-5	i	1
CC(=O)N1c2ccccc2C(C)=CC1(C)C	.	.	97	.	.	i	1.2
COc1ccc(CCNC(=O)CC2C(=O)NCCN2CC(C)(C)C)cc1 (stereo not drawn)	.	.	101	.	-4	i	1
O=C(Cc1ccc(Cl)cc1)N/N=C/c1cccs1	.	.	95	.	-4	i	1.3
COc1ccc(NC(=O)COC(=O)c2ccc(S(=O)(=O)N(C)c3ccccc3OC)cc2)cc1OC	17	202	105	.	-3	i	0.91
CC(C)(C)CC(C)(C)NC(=S)N1CCN(Cc2ccc3c(c2)OCO3)CC1	-45	90	93	.	-4	i	1
COc1cc2c(cc1NC(=O)C(C)Sc1nc3ccccc3n1C)oc1ccccc12 (stereo not drawn)	10	97	101	-0.9	-3	i	1
COc1cc(/C=C2/CCc3ccccc3C2=O)cc(OC)c1OC	.	.	99	-0.6	1	i	0.83
Cc1ccc(N(CC(=O)NCc2ccc(F)cc2)C(=O)c2csnn2)cc1C	-42	127	106	.	-1	i	0.99
Cc1ccccc1-n1nnc2c(=O)oc3ccccc3c21	-34	110	102	-0.3	-1	i	0.6
CNC(=O)c1ccc(Oc2ccc(C(=O)NC)cc2)cc1	.	.	95	-0.4	-6	i	0.75
CCCCCNCc1ccc(Cl)cc1	-42	130	101	.	-1	i	1.1
O=C(O)CSc1cc(C(F)(F)F)nc(-c2ccccn2)n1	-20	89	200	0.2	-5	i	0.86
O=C(c1cc(-c2ccco2)nn1-c1cccc(Cl)c1)N1CCCCC1	24	100	91	-1.8	-8	i	1.1

Next results follow:
SMILES	Insulin prom inh	Insulin prom inh cell count	RGS16-Gao HTS	GALR2 agonist	PKD1 kinase inh	HSV augment	HSV augment primary fold
CCN(Cc1nc2ccccc2c(=O)[nH]1)Cc1nc2ccsc2c(=O)[nH]1	.	.	106	.	3	i	0.89
CCCNC(=O)/C=C/c1ccc(C(C)C)cc1	-7	88	94	0.1	-9	i	0.79
Nc1nc(NCc2ccco2)nc(NC2CCCCC2)c1[N+](=O)[O-]	.	.	107	.	.	i	0.9
S=C1N(c2ccccc2)CN(C2CCCCC2)CN1c1ccccc1	.	.	96	.	.	i	0.98
Cc1ccc(S(=O)(=O)N(CC(=O)NCc2ccco2)Cc2ccc(F)cc2)cc1	-372	36	97	-2.1	-1	i	1
CC(C)CC(=O)N/C(N)=N/c1nc2ccccc2s1	-21	109	98	-2.5	1	i	0.88
CCOc1ccc(Nc2nc3ccccc3n3cnnc23)cc1	.	.	129	.	.	i	0.93
CCCOC(=O)c1cc2ccccc2oc1=O	.	.	98	-0.8	-10	i	0.81
c1ccc(-c2n[nH]c(-c3ccccn3)n2)nc1	32	148	99&99	-1.4	-1	i	0.96&0.92
CN(C)c1ccc(/C=C/C(=O)c2cc(Cl)ccc2O)cc1	.	.	99	.	.	?	.
CS(=O)c1nc(-c2ccc(Br)cc2)cc(-c2ccccc2)c1C#N (stereo not drawn)	.	.	103	6.2*	-14	i	0.51
COc1ccc(-c2nc3c(n2O)CCCC3=O)cc1OC	.	.	99	-0.9	-2	i	0.93
CCOC(=O)c1c(C)n(C)c2ccc(OC)c(NC(=O)CCN3CCSCC3)c12	-7	124	102	-0.3	-4	i	0.94
CC(OC(=O)c1ccccc1O)C(=O)Nc1cccc(Cl)c1 (stereo not drawn)	.	.	101	.	4	i	0.97
CCc1c(C)nc(SCC(=O)c2ccc(C)c(C)c2)[nH]c1=O	-12	107	95	-2.7	-5	i	0.94
O=C(O)CCCC(=O)Nc1cccc([N+](=O)[O-])c1	.	.	100	.	4	i	1
Cc1cc(NC(=O)CC#N)n(-c2nc3ccccc3[nH]2)n1	.	.	102	.	.	i	0.91
CC(C)CN(CC(C)C)C(=O)Cc1coc2ccc3ccccc3c12	-19	43	97	-0.8	4	i	0.98
FC(F)(F)c1ccnc(Sc2n[nH]c(C(F)(F)F)n2)c1	.	.	102	.	.	i	0.9
Nc1nc2nc(SCC(=O)N3CCCc4ccccc43)[nH]c2c(=O)[nH]1	35	97	104	-1.6	-10	i	0.78
COC(=O)c1cc2ccccc2c(-c2c(O)ccc3ccccc23)c1O	20	46	105	-1.0	-17	i	1.1
Brc1ccc(Oc2ncc(CN3CCOCC3)s2)cc1	-28	71	101	-2.7	-7	i	0.79
CN(CCc1ccccn1)S(=O)(=O)c1ccc(F)cc1	-33	48	104	-2.5	5	i	0.65
COC(=O)C1C2C=CC3(CN(Cc4cccs4)C(=O)C13)O2 (stereo not drawn)	38	128	103	-0.4	5	i	1.1
CN1C(=O)CSc2ccc(NC(=O)Nc3ccccn3)cc21	.	.	97	-0.1	-4	i	1.1
Cc1nn(-c2ccccc2)c(N)c1C(O)(CC(=O)C(F)(F)F)C(F)(F)F (stereo not drawn)	.	.	113	-1.2	0	i	0.96
O=C(O)CCn1c(-c2ccccc2)cc2ccccc21	.	.	99	.	-3	i	0.98
COCCN(C(=S)Nc1cc(C)cc(C)c1)C(C)c1cccnc1 (stereo not drawn)	14	129	106	-1.3	-2	i	0.96
CCCCN(C(=O)NC(=O)Nc1nc2ccc(OC)cc2s1)S(C)(=O)=O	48	83	91	-1.9	-1	i	1.3
O=C1CC(Nc2ccccc2)C(=O)N1c1ccc(N2CCOCC2)cc1 (stereo not drawn)	-380	38	103	-2.5	-9	i	0.92
CCCCCCCOc1ccc(-c2ccc(C#N)cn2)cc1	4	138	97	-0.4	-4	i	1.1
O=C1NN(c2ccc(F)cc2)C(=O)/C1=C/c1cccs1	.	.	107	.	-11	i	1.1
COc1ccc(-c2nnc(-c3cccnc3)o2)cc1	19	182	94	-2.4	-5	i	0.91
Cc1ccc(CCNC(=O)C2CCN(S(=O)(=O)c3cccc4nsnc34)CC2)cc1	-7	88	104	-3.6	-1	i	1.1
Cc1[nH]c(=O)[nH]c(=O)c1S(=O)(=O)N1CCCC1	0	151	98	-1.6	6	i	1
CCOC(=O)c1c(/N=C/N(C)C)sc(C=O)c1-c1ccccc1	.	.	93	.	-1	i	0.94
Nc1ccc2nc(C(F)(F)F)[nH]c2c1	.	.	103	.	-3	i	0.98
Nc1ccc(Sc2cnn(-c3ccccc3)c(=O)c2Cl)cc1	.	.	103	-0.9	-9	i	1.1
O=C(CSc1nc2c(cnn2-c2ccccc2)c(=O)[nH]1)N1N=C(c2cccs2)CC1c1ccc(F)cc1 (stereo not drawn)	5	127	105	-1.2	-2	.	.
Cc1cccc(NC(=O)c2ccccc2O)c1C	35	157	90	-0.8	-3	i	0.84
CN(CC(=O)Nc1ccccc1N1CCOCC1)CC(=O)Nc1ccc(F)c(F)c1F	.	.	102	.	-8	i	0.97
CN(C)S(=O)(=O)c1cccc(NC(=O)COC(=O)CNC(=O)c2cccc([N+](=O)[O-])c2)c1	.	.	102	.	.	i	0.96
O=C(Nc1ccc(Cl)c([N+](=O)[O-])c1)c1ccc(NCCCN2CCOCC2)c([N+](=O)[O-])c1	-59	55	105	0.4	2	i	0.61
CCOc1ccc(Nc2oc(-c3cccc(Cl)c3)nc2C#N)cc1	39	54	101	-0.3	-2	i	0.84

This is a random part of the collection (roughly 1.2% active in at least one column).
